KCNQ2 block – KCNQ2 potassium channel inhibitors, primary screen, cell-based, CHO-K1, FluxOR thallium flux, B-score (AID 2156) | hit rate 1.1% among 310,000 | B-score at 10 µM | 20 min; hits give low values; only compounds with negative scores are shown here; some inactives read as strong as hits | Potassium voltage-gated channel subfamily KQT member 2 (Rattus norvegicus), O88943;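 active means fluorescence ratio B-score at most minus 3 library SDs, with starting brightness B-score within 2 library SDs, cut at about -5.5 in these data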
Target sequence (O88943 whole entry, looked up): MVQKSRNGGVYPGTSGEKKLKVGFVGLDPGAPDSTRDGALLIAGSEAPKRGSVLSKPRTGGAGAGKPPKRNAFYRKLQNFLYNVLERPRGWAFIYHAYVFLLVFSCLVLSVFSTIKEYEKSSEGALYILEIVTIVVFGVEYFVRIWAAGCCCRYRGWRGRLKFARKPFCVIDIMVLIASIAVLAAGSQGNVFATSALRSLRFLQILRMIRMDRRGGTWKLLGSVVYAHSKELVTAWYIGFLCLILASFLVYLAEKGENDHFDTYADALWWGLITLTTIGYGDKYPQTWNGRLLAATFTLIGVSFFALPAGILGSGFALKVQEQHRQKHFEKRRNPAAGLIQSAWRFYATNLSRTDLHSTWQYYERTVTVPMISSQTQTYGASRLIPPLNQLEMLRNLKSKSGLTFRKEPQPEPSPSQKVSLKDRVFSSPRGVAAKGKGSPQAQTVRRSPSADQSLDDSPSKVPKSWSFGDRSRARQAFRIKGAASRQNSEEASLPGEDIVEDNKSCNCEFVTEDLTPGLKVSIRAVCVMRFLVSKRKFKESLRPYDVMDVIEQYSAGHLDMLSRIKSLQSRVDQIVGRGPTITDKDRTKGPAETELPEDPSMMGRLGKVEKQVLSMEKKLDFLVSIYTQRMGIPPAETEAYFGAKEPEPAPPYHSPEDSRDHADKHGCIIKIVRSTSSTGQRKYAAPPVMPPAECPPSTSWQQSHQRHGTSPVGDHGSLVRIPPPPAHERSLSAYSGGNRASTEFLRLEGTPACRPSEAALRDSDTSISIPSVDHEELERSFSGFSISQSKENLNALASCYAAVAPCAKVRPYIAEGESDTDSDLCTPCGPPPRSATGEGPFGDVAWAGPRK
KCNQ2 block baseline – also measured in KCNQ2 block; calls as there; B-score; measured here: initial fluorescence intensity artifact check;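 brightness before thallium and not channel activity; 0 = typical well and far values either way flag optical interference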
* = called active by the depositor; i = inactive.

No.	SMILES	KCNQ2 block	KCNQ2 block baseline
1	COc1ccc(C(NC(=O)C(C)C)c2ccc3cccnc3c2O)cc1 (configuration not stated)	i	0.06
2	Cc1cc(=O)oc2cc(OCC(=O)Nc3c(Cl)cccc3C(F)(F)F)ccc12	i	0.2
3	O=C(CNC(=O)c1ccccc1F)OCCOc1cccc(Cl)c1	i	-0.04
4	CCOC(=O)Nc1ccc2c(c1)N(C(=O)CCN(CC)CC)c1ccccc1S2=O (configuration not stated)	i	-0.09
5	CN(C)c1nc(N)c2ncc(=S)[nH]c2n1	i	-0.52
6	CC(=O)c1c(C)[nH]c(C)c1C(C)=O	i	-0.17
7	O=C(Nc1cccc(F)c1)NC1(C(=O)N2CCC(O)CC2)CCCCC1	i	-0.2
8	C=CCSc1nnc(NC(=O)c2cccc(S(=O)(=O)N3CCOCC3)c2)s1	i	0.36
9	COc1ccc(N=C2SC(C(N)=O)CC(=O)N2Cc2ccc3c(c2)OCO3)cc1 (configuration not stated)	i	0.07
10	O=C(O)Cn1c(SCc2cccc3ccccc23)nc2ccccc21	i	2.74
11	N#C/C(=C/c1ccc(O)c([N+](=O)[O-])c1)C(=O)Nc1ccccc1	i	-1.12
12	CCOC(=O)NC(=O)c1cn(C(CC)CO)c(=O)[nH]c1=O (configuration not stated)	i	3.07
13	Cc1nc(NCCc2ccccc2)c2nnn(Cc3ccccc3Cl)c2n1	i	0.14
14	CN1CCN(C(=O)CN2C(=O)COc3ccc(S(=O)(=O)N4CCOCC4)cc32)CC1	i	-0.15
15	O=C(N=c1ccn(-c2nc3ccccc3nc2NS(=O)(=O)c2ccccc2)cc1)c1cccs1	i	0.13

Structural class: those above with fluorine
No.	SMILES	KCNQ2 block	KCNQ2 block baseline
2	Cc1cc(=O)oc2cc(OCC(=O)Nc3c(Cl)cccc3C(F)(F)F)ccc12	i	0.2
3	O=C(CNC(=O)c1ccccc1F)OCCOc1cccc(Cl)c1	i	-0.04
7	O=C(Nc1cccc(F)c1)NC1(C(=O)N2CCC(O)CC2)CCCCC1	i	-0.2

Later entries.
No.	SMILES	KCNQ2 block	KCNQ2 block baseline
16	Cc1ccc(C(=O)O/N=C2\CCSc3ccc(C)cc32)cc1	i	0.11
17	CCCCn1c(N)c(N(CCOC)C(=O)CN2C(=O)c3ccccc3C2=O)c(=O)[nH]c1=O	i	0.92
18	CCCc1cc(C(=O)Nc2ccc(OC)cc2[N+](=O)[O-])cs1	i	1.71
19	CNc1nc2ccccc2n1/N=C/c1cccc(OC)c1OC	i	0.3
20	N#CCC(=O)N/N=C\c1cc(Br)ccc1OC/C=C/c1ccccc1	i	-1.22
21	COc1cccc(CNc2ccc([N+](=O)[O-])cc2C)c1	i	-0.3
22	Cc1ccc(CNS(=O)(=O)c2ccc3oc(C(=O)O)c(C)c3c2)cc1	i	1.67
23	COc1ccccc1N1CCN(C(=S)Nc2ccc(S(=O)(=O)N3CCOCC3)cc2)CC1	i	-0.12
24	CCOC(=O)C1(C(F)(F)F)N=C(c2cccnc2)OC(N2CCCCC2)=N1 (configuration not stated)	i	0.16
25	Cc1ccccc1OCc1nnc2c3cnn(C)c3ncn12	i	-1.25
26	Cc1ccc(NC(=O)[C@H](Cc2ccccc2)NC(=O)[C@@H]2Cc3ccccc3CN2)c(C)c1	i	1.37
27	Cc1cc2oc(=O)cc(COC(=O)c3n[nH]c4ccccc34)c2cc1C	i	0.16
28	COc1ccc(NC(=O)Nc2nnc(Cc3ccc(F)cc3)s2)cc1	i	1.98
29	COc1ccc(S(=O)(=O)NNC(=O)Nc2ccc(C)cc2)c(OC)c1	i	-0.24
30	CCc1nnc(NC(=O)CCC(=O)NC2CCCCC2)s1	i	-0.55
31	CCN(CC)C(=O)CC(c1ccc2c(c1)OCO2)c1c(OC)cc(OC)c2ccc(=O)oc12 (configuration not stated)	i	-0.39
32	CN(C)c1cc[n+](CC(=O)Nc2cc(C(F)(F)F)ccc2Cl)cc1	i	-0.7
33	O=C(Nc1ccccc1)N1CCCC(CNS(=O)(=O)Cc2ccccc2)C1 (configuration not stated)	i	1.63
34	COc1cc(/C=C/C(=O)c2ccc(C)c([N+](=O)[O-])c2)cc(OC)c1O	i	-1.19
35	CCOc1ccc(N2C(=O)C3CC(C)=C(C)CC3C2=O)c([N+](=O)[O-])c1 (configuration not stated)	i	-0.77
36	COc1cc(CN2CCC(C(N)=O)CC2)ccc1OCc1ccccc1	i	0.19
37	O=C(Nc1ccc2c(c1)OCCO2)Nc1ccc2c(c1)OCO2	i	0.53
38	COc1ccccc1/C=C/C1=NC(=C\C=C/c2ccccc2)/C(=O)O1	i	1.27
39	CCn1c(C(=O)NC(C)c2ccc3c(c2)OCCO3)cc2sccc21 (configuration not stated)	i	0.05
40	COc1cccc(-c2cc3nc4c(c(NCC(C)(C)CN(C)C)n3n2)CCCC4)c1	-7.7*	0.01*
41	CCC(C)(CCNC(=O)Cc1ccccc1)c1ccccc1OC (configuration not stated)	i	-0.28
42	CC1CCCN(c2ccc(N)cc2C(N)=O)C1 (configuration not stated)	i	-0.25
43	Cc1cc(C(=O)NP(=O)(N2CC(C)OC(C)C2)N2CC(C)OC(C)C2)c(C)n1C1CC1 (configuration not stated)	i	-0.57
44	Cc1ccc(C(=O)NN2C(=O)C3C4C=CC(C5CC45)C3C2=O)cc1 (configuration not stated)	i	1.26
45	CCOc1ccccc1NC(=O)c1cc(C(=O)c2cc(OC)ccc2O)coc1=N	i	-0.27
46	COc1ccc(NC(=O)CN(C)C(=O)Cc2coc3cc(C)c(C)cc23)cc1	i	2.71
47	O=C(CNC(=O)c1cccs1)Nc1ccc2c(c1)OCCO2	i	0.03
48	COC(=O)C1=C(N)OC2=C(C(=O)CC(C)(C)C2)C1c1ccccc1OC (configuration not stated)	i	-0.02
49	COc1ccc(CNc2oc(-c3cccc4ccccc34)nc2C#N)cc1	i	1.83
50	CCN(CC(=O)Nc1ccccc1OC)C(=O)c1cc(-c2ccccc2)nn1-c1ccccc1	i	-1.62
51	COc1cc(C2NC(=O)NC(c3ccccc3)=C2C(C)=O)ccc1OCC#N (configuration not stated)	i	0.62
52	COc1ccc(-c2csc(-c3cccs3)n2)c(OC)c1	i	-2.62
53	CCC(C)c1ccccc1NC(=O)c1cc2cccc([N+](=O)[O-])c2[nH]1 (configuration not stated)	i	1.7
54	O=C(CNC(=O)c1ccc(Br)cc1)NCC(=O)OCC(=O)c1ccccc1	i	0.39
55	Nc1ccc([N+](=O)[O-])cc1C(=O)NNC(=O)c1ccco1	i	-1.45
56	Cc1c(Cl)cccc1NC(=S)NCCc1ccc(S(N)(=O)=O)cc1	i	0.06
57	COc1ccc(C[C@H]2CN3C(=NC[C@@H]3C(C)C)N2CCNC(=O)CCC2CCCCC2)cc1	i	0.65
58	C=CCN(c1ccccc1)S(=O)(=O)c1cccc(C(=O)Nc2cc(C)ccn2)c1	i	0.8
59	Nc1ccc(SCC(=O)Nc2cccc([N+](=O)[O-])c2)cc1	i	-0.64
60	Cc1ccc(/C=N/Nc2cc(C)nc(NCc3ccccc3)n2)cc1	i	-1.32

Sorted by number of heavy atoms (descending): some entries from above
No.	SMILES	KCNQ2 block	KCNQ2 block baseline
50	CCN(CC(=O)Nc1ccccc1OC)C(=O)c1cc(-c2ccccc2)nn1-c1ccccc1	i	-1.62
54	O=C(CNC(=O)c1ccc(Br)cc1)NCC(=O)OCC(=O)c1ccccc1	i	0.39
60	Cc1ccc(/C=N/Nc2cc(C)nc(NCc3ccccc3)n2)cc1	i	-1.32
56	Cc1c(Cl)cccc1NC(=S)NCCc1ccc(S(N)(=O)=O)cc1	i	0.06
47	O=C(CNC(=O)c1cccs1)Nc1ccc2c(c1)OCCO2	i	0.03
52	COc1ccc(-c2csc(-c3cccs3)n2)c(OC)c1	i	-2.62

(next part)
No.	SMILES	KCNQ2 block	KCNQ2 block baseline
61	CCN(CC)S(=O)(=O)c1cc(C(=O)Nc2ccccc2[N+](=O)[O-])ccc1Cl	i	-0.89
62	CC(=O)N1CCN(c2ccc(NC(=O)c3cccc(Cl)c3Cl)cc2)CC1	i	-1.61
63	CCCOc1ccc(-c2csc3ncn(Cc4ccc(C(=O)O)cc4)c(=O)c23)cc1	i	-0.02
64	CC(C)c1ccc(/C=c2\sc3nc(-c4ccncc4)nn3c2=O)cc1	i	-0.28
65	CCN(CC(=O)NC(C)C)C(=O)c1ccc(Cl)cc1	i	-1.1
66	CCCN1C(=O)c2ccccc2NC1c1ccc(Cl)c(Cl)c1 (configuration not stated)	i	0.05
67	O=C(NCCc1nc2ccccc2[nH]1)/C(=C/c1ccco1)NC(=O)c1ccco1	i	-1.58
68	O=C(Nc1ccc([N+](=O)[O-])cc1)c1cccc(S(=O)(=O)Nc2cccnc2)c1	i	3.13
69	O=C(NCCS(=O)(=O)N1CCN(c2ccccc2)CC1)c1ccco1	i	-1.32
70	CC(=O)Nc1ccc(S(=O)(=O)NC2CCS(=O)(=O)C2)cc1Cl (configuration not stated)	i	-0.47
71	O=C(Nc1cccnc1)C1CCN(S(=O)(=O)c2cccs2)CC1	i	0.59
72	COc1cc2c(c(OC)c1OC)-c1ccc(OC)c(=O)cc1[C@@H](NC(C)=O)CC2	i	-1.4
73	Nc1nonc1C(=O)NCCNC(=O)c1cccs1	i	3.08
74	Cc1nn2c(Nc3ccc(F)cc3)c3c(nc2c1-c1ccccc1)CCC3	i	-0.4
75	COc1ccc(NC(=O)C(CC(C)C)NS(=O)(=O)c2ccc3c(c2)CCN3C(C)=O)cc1OC (configuration not stated)	i	-0.01
76	Cc1nccn1CCC1CCCCN1C(=O)CCc1nnc(-c2ccsc2)o1 (configuration not stated)	i	0.03
77	COc1ccc(/C=N/OCC(=O)N(Cc2ccc(OC)cc2)c2ccccc2C(=O)O)cc1	i	3.07
78	COc1ccc(CSc2nnc(-c3ccncc3)n2C)cc1F	i	0.25
79	CN(Cc1ccccc1)c1oc(COc2ccccc2F)nc1C#N	i	-1.06
80	Cc1nn(Cc2ccccc2)c(Cl)c1C(=O)NCCc1ccccc1	i	0.25
81	O=C(CC(Cc1ccccc1)C(=O)O)Nc1cccc(C(F)(F)F)c1 (configuration not stated)	i	-0.06
82	O=C(CSc1nc(-c2ccccc2)nn1C(=O)c1ccccc1)Nc1cccc([N+](=O)[O-])c1	i	0.14
83	Cc1cccc(NC(=O)c2cc(NC(=O)C3CCCCC3C(=O)O)ccc2Cl)n1 (configuration not stated)	i	-1.55
84	CCN1C(=O)CC(C(=O)OC)=C1C	i	1.8
85	CCOC(=O)C(C(C)=O)C(c1ccc(OC)cc1)C(C(C)=O)C(=O)OCC (configuration not stated)	i	-0.18
86	COc1ccccc1NNC(=O)C(O)(c1ccccc1OC)c1ccccc1OC	i	0.72
87	CCn1cc(C(=O)NCCCN2CCCCCC2)c(=O)c2cc(S(=O)(=O)N3CCc4ccccc4C3)ccc21	i	0.02
88	COc1ccc(NC(=O)Cc2ccc(Cl)c(Cl)c2)cn1	i	0.35
89	CC1C(=O)C(C)C(c2cccc(Br)c2)NC1c1cccc(Br)c1 (configuration not stated)	i	-1.25
90	CN(C)S(=O)(=O)n1cc(/C=C(\NC(=O)c2ccccc2)C(=O)N2CCCC2)c2ccccc21	i	-0.05
91	COc1ccc(C(=O)C2CCCN(C(=O)/C=C/c3cnc[nH]3)C2)c(C)c1 (configuration not stated)	i	0.66
92	COc1ccccc1C(=O)Nc1ccc(S(=O)(=O)Nc2cc(C)on2)cc1	i	0.33
93	Cc1ccc(C(=O)O/N=C(\N)c2ccccn2)cc1C	i	0.09
94	Cc1ccc(-n2nc3c(c2NC(=O)/C=C\c2ccc4c(c2)OCO4)CSC3)cc1	i	0.9
95	COc1cc(NC(=O)c2cccs2)c(OC)cc1NC(=O)CCn1nnc2ccccc21	i	0.69
96	CCCCC(=NCCc1c(C)[nH]c2ccccc12)C1=C(O)CC(c2ccccc2)CC1=O (configuration not stated)	i	0.03
97	COc1ccc(NC(=O)C2=C(C)Nc3nc(CCCO)nn3C2c2ccc(OC)c(OC)c2)cc1 (configuration not stated)	i	-0.08
98	O=C(COC(=O)c1ccccc1)c1ccc(Br)cc1	i	0.17
99	COC(=O)[C@H]1C[C@@H]1[C@H](NC(=O)[C@H]1C[C@@H]1[C@H](NC(=O)OCc1ccccc1)c1ccccc1)c1ccccc1	i	-0.61
100	CCn1c(CNC(=O)c2cccnc2)cc2ccccc21	i	0.13
101	CCN(CC)C(=O)CSc1nc(OC)cc(=O)[nH]1	i	-1.49
102	O=C(CCCOc1ccc(Cl)cc1Cl)NCc1ccccn1	i	0.97
103	CCC(C)(C)n1nnnc1C(c1cc2cccc(C)c2[nH]c1=O)N1CCCC1 (configuration not stated)	i	0.38
104	CCn1c(SCC(=O)N=Nc2c(O)[nH]c3ccccc23)nnc1-c1ccc(C(C)(C)C)cc1	i	1.02
105	COc1ccccc1CCNC(=O)C(=O)Nc1cc2c3c(c1)C(C)C(=O)N3CCC2 (configuration not stated)	i	-0.66
106	CCCCCSc1nc2c(c(=O)[nH]c(=O)n2C)n1CCc1ccccc1	i	-2.14
107	COc1ccc(C(=O)NC(C)c2cnn(-c3ccccn3)c2C)o1 (configuration not stated)	i	0.65
108	COc1ccc(S(=O)(=O)Oc2ccc3ccccc3c2)cc1	i	1.41
109	COc1ccc(S(=O)(=O)N2CCN(Cc3cccc(F)c3)CC2)cc1	i	0.51
110	CCN(Cc1ccccc1)C(=O)c1ccc(N(C)S(=O)(=O)c2ccc(C)cc2)cc1	i	-0.01
111	COc1ccc(S(=O)(=O)NCCc2c[nH]c3ccc(Cl)cc23)cc1	i	1.03
112	COC(=O)c1ccc(N2CCN(C)CC2)c(NC(=O)c2cc3ccccc3o2)c1	i	-1.76
113	COC(=O)/C=C/C(=O)Nc1cccnc1	i	0.04
114	COc1cccc(C(=O)/C=C/Nc2ccc(S(=O)(=O)Nc3onc(C)c3C)cc2)c1	i	0.63
115	CCOc1ccc(OCC)c(NC(=O)CC2Oc3ccccc3NC2=O)c1 (configuration not stated)	i	-1.86

The list is partial, so the mix of outcomes need not match the whole.
